Screens (PubChem)
Mtb hypoxia inh = inhibitors of hypoxia-regulated fluorescent reporter in Mycobacterium tuberculosis; M. tuberculosis hypoxia-regulated fluorescent reporter, fluorescence; fluorescence inhibition, % (no concentration beside the values); hit rate 0.1% among 300,000; AID 1159583;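 active = 35 to 45% if threefold the growth effect, above 45% if 1.5-fold the growth effect; inactive = the rest, general growth blockers included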;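 also: wells of about 50 µL received 100 nL stock; 0% = vehicle wells and 100% = reference inhibitor wells; whole bacteria with a GFP reporter of the hypoxia response; strong numbers were not always called active; many hits fall short of the cut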
BJeLR lethal = BJeLR cell viability loss; BJeLR (HRASV12) viability, CellTiter-Glo ATP luminescence, 48 h; reference of the scale not given here; inhibition, % (concentration not given with the values); hit rate 0.17% among 300,000; AID 1554;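 active = replicate mean above 50%; inconclusive = above 50% but judged a plate artefact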;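 also: 50 nL library stock added to about 25 µL; numbers are from one replicate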
Bead autofluor = compound fluorescence in toxin protease inhibitor counterscreen | compound autofluorescence counterscreen, microsphere flow cytometry; active compounds read high | fluorescence intensity (test concentration not listed) | hit rate 3.1% among 360,000;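 active = at least 3 SD above the mean of all compounds, about 16000 in these data; inconclusive = too few beads counted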;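 also: 100 nL of 1 mM stock went into each well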
ugtP null kill = kills S. aureus RN4220 lacking UgtP | hit rate 0.54% among 330,000 | S. aureus RN4220 ugtP deletion, OD600 growth, 16 h; some inactives read as strong as hits | growth inhibition, % (test concentration not listed);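 active = z-score under -3 and OD600 up to 0.15 on both plates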;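 also: plate controls were untreated wells for no effect and antibiotic for full effect; wells of about 80 µL received 100 nL stock; the first replicate is given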
RN4220 kill = S. aureus RN4220 growth inhibition | OD600, 16 h | inhibition, % (test concentration not listed) | hit rate 0.33% among 330,000;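 active = z-score of -3 or lower and OD600 up to 0.18 on both plates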;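 also: plate controls were untreated cells for no effect and reference antibiotic for full effect; stock transfer was 100 nL into about 80 µL; one replicate is shown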
PrP UTR inh = suppresses PrP 5' UTR mRNA reporter expression; cell-based PrP 5' UTR mRNA reporter, plate reader; hit rate 0.35% among 340,000; inhibition, % (no concentration beside the values);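 active = every replicate at 50% or more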;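 also: 0 = median of the neutral control wells; tested in H4 reporter cells; numbers are from one replicate; inactives centre near -14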
Mtb hypoxia inh growth = also measured in Mtb hypoxia inh; calls as there; growth inhibition, %; measured here: M. tuberculosis growth (absorbance);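 0% = vehicle and 100% = reference antibiotic; read after six days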
* = called active by the depositor; ? = inconclusive; . = not tested or not shown.

SMILES | Mtb hypoxia inh | Mtb hypoxia inh growth | BJeLR lethal | Bead autofluor | ugtP null kill | RN4220 kill | PrP UTR inh
COc1ccc(CCNC(=O)CCn2c(=O)[nH]c3cc(OC)c(OC)cc3c2=O)cc1OC | 8 | 8 | 0 | 3662 | -3 | 3.5 | -13
COC(=O)C(Cc1c[nH]c2ccccc12)NC(=O)C(C)C (configuration not stated) | 10 | 8 | -1 | 3088 | -1 | 2.5 | -19
COc1ccc(CCNC(=O)C(CCC(N)=O)NS(=O)(=O)c2ccc(Cl)cc2)cc1OC (configuration not stated) | -1 | -9 | -6 | 2977 | 8 | 1.8 | -9
Cc1cccc(C(=O)Oc2cccc3c(O)cccc23)c1 | 15 | 3 | -4 | 3949 | 10 | 4.8 | -44
O=C(O)c1cccnc1Sc1ncnc2sc3c(c12)CCC3 | -4 | 12 | -5 | 4511 | -6 | 3.2 | -5
Cc1cccc(CN2C[C@]34C=CC(CC3S2(=O)=O)O4)c1 (some centres not stated) | 1 | 6 | . | . | 2 | 1.3 | .
CC(=O)Oc1ccccc1C1=NN(C(=O)/C=C/c2ccccc2)C(c2ccccc2)C1 (configuration not stated) | 4 | 1 | -15 | 2089 | -19 | -6.0 | -9
COC(=O)[C@@]1(Cc2ccc(F)cc2)C2c3cc(C(=O)N(C)C)n(Cc4ccccc4)c3CC2CN1C(=O)c1ccccc1 (some centres not stated) | 10 | 10 | . | . | -14 | 6.9 | .
COc1ccc(/C=C(/C#N)C(=O)Nc2cccc([N+](=O)[O-])c2)cc1C(=O)O | . | . | -2 | 2207 | . | . | -20
CCOc1ccc(CN2CCC(C(=O)N3CCN(c4ccccc4F)CC3)CC2)cc1OC | 7 | 8 | 6 | 6106 | -11 | 7.6 | 5
COc1ccc(-c2c3c(=O)n(C)c(=O)n(C)c3cn2-c2ccccc2O)cc1 | 1 | 21 | 4 | 3380 | 10 | 2.2 | -22
O=C(OCc1ccc([N+](=O)[O-])cc1)c1cc([N+](=O)[O-])ccc1N1CCOCC1 | 13 | 0 | -3 | 6286 | 6 | 6.1 | -17
CC1CN(C(C)CO)C(=O)c2cc(NC(=O)Cn3cnnn3)ccc2OC1CN(C)CC1CCCCC1 (configuration not stated) | 2 | 4 | . | . | -3 | 6.1 | .
COc1ccccc1CC(=O)N1CCN(S(=O)(=O)c2ccccc2F)CC1 | 5 | 1 | . | 2799 | 2 | 7.0 | -11
O=C1c2ccc([N+](=O)[O-])cc2NC(c2ccco2)N1/N=C/c1ccco1 (configuration not stated) | . | . | 5 | 4648 | . | . | -19
O=C(COc1ccccc1)NC1CCCCCCC1 | . | . | 1 | 6108 | -3 | 1.6 | -19
COc1ccc(-n2nc(C(=O)NCC(=O)NCCCN3CCOCC3)c3ccccc3c2=O)cc1 | -1 | -7 | -9 | 6185 | 9 | 2.4 | -11
CC1CCC(C(C)C)C(OC(=O)C[n+]2cccc(C(N)=O)c2)C1 (configuration not stated) | . | . | -1 | 4728 | -1 | -0.1 | 8
COC(=O)[C@]1(Cc2ccccc2)NC(c2ccc(-c3ccc(OC)cc3)cc2)C2C(=O)N(C)C(=O)C21 (some centres not stated) | 7 | 11 | . | . | -13 | 4.5 | .
O=C(CCn1c(=O)oc2ccccc21)Nc1ccc(N2CCOCC2)cc1 | -4 | -5 | -15 | 3135 | 16 | 4.9 | -11
CC(=O)N1[C@H](C)C=C[C@]1(Cc1ccccc1)C(=O)NCCc1c[nH]c2ccccc12 | . | . | -5 | 3581 | . | . | -8
O=C(Nc1cccc(Cl)c1)N1CCN2C(=O)c3ccccc3C12c1ccccc1 (configuration not stated) | . | . | 9 | 3012 | 9 | -6.7 | -19
Cc1c(-n2c(SCC(N)=O)nc3ccccc3c2=O)c(=O)n(-c2ccccc2)n1C | 8 | 13 | -1 | 4366 | 5 | 4.5 | -27
Nc1nnc(SCC(=O)NC2CCCCCC2)s1 | 2 | -3 | -10 | 4386 | 1 | 3.5 | 1
Cc1ccc(NC(=O)CCSc2nc(C)cc(C)n2)cc1 | 6 | 2 | 16 | . | -3 | 6.8 | -75

Random excerpt: 6 entries already listed
SMILES | Mtb hypoxia inh | Mtb hypoxia inh growth | BJeLR lethal | Bead autofluor | ugtP null kill | RN4220 kill | PrP UTR inh
CC1CN(C(C)CO)C(=O)c2cc(NC(=O)Cn3cnnn3)ccc2OC1CN(C)CC1CCCCC1 (configuration not stated) | 2 | 4 | . | . | -3 | 6.1 | .
Cc1ccc(NC(=O)CCSc2nc(C)cc(C)n2)cc1 | 6 | 2 | 16 | . | -3 | 6.8 | -75
Cc1cccc(C(=O)Oc2cccc3c(O)cccc23)c1 | 15 | 3 | -4 | 3949 | 10 | 4.8 | -44
COc1ccc(CCNC(=O)CCn2c(=O)[nH]c3cc(OC)c(OC)cc3c2=O)cc1OC | 8 | 8 | 0 | 3662 | -3 | 3.5 | -13
O=C(COc1ccccc1)NC1CCCCCCC1 | . | . | 1 | 6108 | -3 | 1.6 | -19
O=C(Nc1cccc(Cl)c1)N1CCN2C(=O)c3ccccc3C12c1ccccc1 (configuration not stated) | . | . | 9 | 3012 | 9 | -6.7 | -19

Carrying on.
SMILES | Mtb hypoxia inh | Mtb hypoxia inh growth | BJeLR lethal | Bead autofluor | ugtP null kill | RN4220 kill | PrP UTR inh
Cn1cccc1/C=C1\C(=O)NC(=O)N(Cc2ccccc2Cl)C1=O | -13 | -5 | . | 2465 | -1 | -1.1 | -15
CCCCCC(=O)Nc1ccc(-c2csc(N)n2)cc1 | -2 | 5 | 5 | 4836 | 1 | 9.7 | -28
CCOc1ccc(NC(=O)CN(C)C(=O)c2ccc(OCC3CCCO3)cc2)cc1OCC (configuration not stated) | -1 | 3 | 14 | 5455 | 3 | -1.6 | -11
CC1=NN(CCC#N)C(=O)/C1=C/c1ccc(N(C)C)cc1 | 6 | 1 | 8 | 4606 | -2 | 2.2 | -13
COC(=O)COc1ccc(/C=N/NS(=O)(=O)c2ccccc2)cc1 | . | . | -5 | 3152 | . | . | -14
Cc1nnc2sc(-c3ccccn3)nn12 | 4 | -4 | -5 | 6889 | 5 | 3.9 | -5
CCOc1cccc(C(=O)NC(=S)Nc2ccc(N3CCCC3)cc2)c1 | . | . | -3 | 2047 | 50 | 0.0 | -7
O=C(NCc1ccco1)/C(=C/c1ccccc1)NC(=O)c1ccco1 | 10 | 0 | -6 | 5949 | 1 | 0.0 | 2
CNc1ccc(/C=C2\COc3ccccc3C2=O)cc1[N+](=O)[O-] | . | . | 3 | 2602 | -9 | 2.1 | -46
CCOc1ccc(NC(=O)C2CCCN(c3nn4c(=O)cc(C)nc4s3)C2)cc1 (configuration not stated) | -1 | 3 | -15 | 6148 | 1 | 2.6 | -3
CCC(C)N(CCNC(=O)c1ccc(NC2=NC3CS(=O)(=O)CC3S2)cc1)Cc1ccco1 (configuration not stated) | 2 | 15 | 0 | 5951 | -6 | -13 | 4
COc1ccccc1CNC(=O)Cc1csc(NC(=O)Nc2ccccc2OC)n1 | -2 | -4 | -3 | . | 1 | -0.6 | -12
CC(NC(=O)COC(=O)CCNC(=O)c1ccco1)C12CC3CC(CC(C3)C1)C2 (configuration not stated) | . | . | . | 2224 | -1 | 6.4 | -3
CC1CCC(=O)N(C(CSc2ccccc2)Cc2ccccc2)CC1 (configuration not stated) | -4 | 9 | . | . | 9 | 6.4 | .
O=C(COC(=O)/C=C/C(=O)OCC(=O)NC12CC3CC(CC(C3)C1)C2)NC12CC3CC(CC(C3)C1)C2 | 4 | 7 | 2 | 9114 | -7 | -2.4 | 5
COc1ccc(OC)c(-n2c(C)cc(C=O)c2C)c1 | 12 | 0 | -15 | 3855 | 1 | -0.7 | -8
CC(C)(C)C1CCC(OCC(O)CN2CCN(c3ccccc3)CC2)CC1 (configuration not stated) | . | . | -2 | 2512 | 4 | 2.9 | -15
CN1CCN(C(=O)c2cc3ccccc3[nH]2)CC1 | -5 | 0 | 1 | 3966 | 1 | 4.3 | -11
COCCNC(=O)CSc1nc(N)c(NC(=O)c2ccccc2F)c(=O)[nH]1 | 20 | 1 | -3 | 2027 | 1 | 3.1 | -3
O=C(Cn1ncc2c3ccccc3n(Cc3ccc(F)cc3)c2c1=O)N1CCC2(CC1)OCCO2 | 4 | 12 | -3 | 2387 | -4 | -2.8 | -4
Cn1cccc1C1CCCN1CC(=O)Nc1ccc(C(N)=O)cc1 (configuration not stated) | 4 | 6 | . | 4107 | 5 | 0.3 | -14
O=c1cc(CN2CCN(Cc3ccc(F)cc3)C(CCO)C2)[nH]c2ccccc12 (configuration not stated) | 10 | 5 | -5 | 4737 | 8 | 2.9 | -20
NC(=O)c1ccccc1NC(=O)COc1ccc(Cl)cc1 | -2 | 5 | 0 | 4100 | -4 | 6.8 | -38
CN(C)/C=C(\C=NOCc1ccc(Cl)cc1Cl)C(=O)Nc1ccc(Cl)c(Cl)c1 | -8 | 10 | . | . | 53 | 17 | .
Cc1ccc(N2C(=O)N(CC(=O)Nc3ccc(C)cc3[N+](=O)[O-])C(=O)C2C)cc1 (configuration not stated) | -4 | -8 | 4 | 6407 | 13 | 6.7 | -14

New compounds follow
SMILES | Mtb hypoxia inh | Mtb hypoxia inh growth | BJeLR lethal | Bead autofluor | ugtP null kill | RN4220 kill | PrP UTR inh
CCOc1ccccc1N1CN(C2CCCCC2)CNC1=S | 10 | 3 | -16 | 4000 | 9 | 3.6 | .
C/C(=N\NC(=O)c1ccc(C(=O)N/N=C(\C)c2ccco2)o1)c1ccco1 | . | . | -1 | 4541 | . | . | 0
Cc1cc(=O)[nH]c(N/N=C2/CCCC/C2=C\c2ccccc2)n1 | . | . | 12 | 3316 | . | . | -1
CCCCc1ccc(NC(=O)N[C@@H](C)C(=O)O)cc1 | . | . | -3 | ? | . | . | 7
O=C(O)CCn1ccnc1-c1ccccc1 | 2 | -1 | 2 | 2847 | -5 | 4.7 | -6
COC(=O)C1=C(c2ccccc2)C[C@@H]2CC[C@H]1N2C(=O)NCCNC(C)=O | . | . | 6 | 2663 | . | . | -7
COC(=O)c1ccc(C)c(NC(=O)c2ccc(Cn3cc([N+](=O)[O-])cn3)o2)c1 | -2 | 5 | -10 | 2386 | 14 | -2.6 | -24
COc1ccc(/C=C\C(=O)NCc2ccc3c(c2)cc(C)n3C)cc1OC | -3 | 11 | -9 | 2367 | -3 | -2.6 | -14
CCn1c(-c2ccc(C(C)(C)C)cc2)n[nH]c1=S | . | . | 6 | 2725 | -10 | 2.1 | -19
O=C(Oc1ccc(-c2nnco2)cc1)C1CCN(C(=O)c2ccc(F)cc2)CC1 | 1 | -2 | -1 | 6074 | 1 | 4.9 | -13
NC(=O)c1ccc(-n2nnnc2SCc2ccc(F)cc2)cc1 | . | . | 2 | 4760 | 4 | -0.3 | -7
COC(=O)c1ccc(-n2c(C)cc(/C=N/Nc3nc(C)cc(=O)[nH]3)c2C)cc1 | . | . | 15 | 6312 | . | . | 2
CC(C)(C)C(=O)C(Cc1ccccc1Cl)n1cncn1 (configuration not stated) | . | . | -2 | 3864 | 3 | 0.0 | -14
COc1cc2c(cc1NC(=O)Nc1cccc(C)c1)oc1ccccc12 | . | . | 2 | 3021 | 17 | -9.0 | -13
CCn1c(=O)cc(OCC(=O)N2CCCCCC2)c2ccccc21 | 9 | 16 | -6 | 6039 | 1 | 1.1 | -14
COCC(=O)N(C)C[C@H]1N[C@@](Cc2ccccc2)(C(=O)OC)[C@H]2C(=O)N(C)C(=O)[C@@H]12 | -7 | 2 | . | 3847 | 3 | -0.2 | -12
Cc1ccc(NC(=S)N2CCC(c3ccc(C)cc3)C2)cc1 (configuration not stated) | -9 | -12 | 0 | 4668 | -1 | 1.5 | -35
CCOc1cccc(C2/C(=C(/O)c3ccc4c(c3)CC(C)O4)C(=O)C(=O)N2CCN2CCOCC2)c1 (configuration not stated) | 3 | 11 | 9 | 5544 | -1 | 1.0 | 0
COC(=O)[C@@H]1CCCN1Cc1c(C(=O)N2CCOCC2)nc2c(C)cccn12 | -1 | 5 | 10 | 4442 | -3 | 5.5 | -2
Cc1ccc(/C=C2\SC(=S)N(CCCC(=O)Nc3ccccn3)C2=O)cc1 | . | . | 9 | 2098 | -1 | 5.6 | 39
CCOC(=O)Cc1csc(NC(=O)C(C)(C)C)n1 | 3 | 5 | -4 | 10940 | 1 | 3.5 | -51
Cc1cc(C)nc(SCc2nnc(SCC(=O)NCc3ccco3)n2-c2ccccc2)n1 | 14 | 4 | -3 | 3688 | -4 | 3.0 | -54
O=c1[nH]c(CSc2ccccn2)nc2ccccc12 | 3 | -3 | -3 | 2373 | 6 | 1.7 | -78
FC(F)(F)c1nc(-c2ccccc2)ncc1-c1nnnn1-c1ccccc1 | 10 | 0 | 8 | 6407 | 14 | 3.8 | -20
